# Source: PubChem BioAssay
# A1 apoptosis 2: compounds inhibiting A1, read as caspase activation; MEF A1-2A-BIM cells, caspase-Glo luminescence, 3 h; percent of clofoctol response, DMSO zero; caspase activation, % (test concentration not listed); 24,000 tested, under 10 active; in the data active means caspase activation above about 5.9%;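 further: wells of about 30 µL received 50 nL stock; the first replicate is given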
#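 Material: mouse embryonic fibroblasts co-expressing A1 and BIM (A1-2A-BIM), primed for A1 dependence / Quantity: 2500 cells/well / Buffer or medium: RPMI-1640 growth medium with 10% FBS / Doses: 50 nL compound per well, pinned / Schedule: 3 h compound exposure at 37 °C / Signal: Caspase-Glo luminescence (DEVD substrate) / Measure: Caspase-3/7 activation, seen as rise in luminescence signal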
# Active calls of the source: *. An excerpt, so the mix of outcomes need not match the whole.
SMILES,A1 apoptosis 2
C[C@@H]1CN([C@H](C)CO)C(=O)c2cc(NC(=O)CCC(F)(F)F)ccc2O[C@H]1CN(C)Cc1ccc(-c2ccccc2)cc1,-0.9
Cc1ccc(S(=O)(=O)Nc2ccc3c(c2)C(=O)N([C@@H](C)CO)C[C@H](C)[C@@H](CN(C)Cc2ccncc2)OCCCC[C@H](C)O3)cc1,0.9
COc1ccc(S(=O)(=O)Nc2ccc3c(c2)C(=O)N([C@@H](C)CO)C[C@@H](C)[C@@H](CN(C)S(=O)(=O)c2ccc(OC)cc2)OCCCC[C@@H](C)O3)cc1,0.3
C[C@@H]1CCCCO[C@@H](CN(C)C(=O)Nc2ccc3c(c2)OCO3)[C@@H](C)CN([C@@H](C)CO)C(=O)c2cc(NC(=O)Nc3cccc4ccccc34)ccc2O1,0.6
C[C@@H]1CN([C@@H](C)CO)C(=O)c2cc(NC(=O)C3CC3)ccc2O[C@@H]1CN(C)C(=O)Nc1ccc(F)cc1,0.0
C[C@H](CO)N1C[C@H](C)[C@H](CN(C)C(=O)NC2CCCCC2)Oc2ncc(C#CCN(C)C)cc2C1=O,-0.6
C[C@@H]1CCCCO[C@@H](CN(C)Cc2ccncc2)[C@@H](C)CN([C@H](C)CO)C(=O)c2cc(NS(=O)(=O)c3ccccc3)ccc2O1,0.2
C[C@H]1CCCCO[C@@H](CN(C)C(=O)Nc2ccccc2)[C@@H](C)CN([C@@H](C)CO)C(=O)c2cc(NC(=O)C3CCCCC3)ccc2O1,1.3
C[C@@H]1CN([C@H](C)CO)C(=O)c2cc(NC(=O)C3CC3)ccc2O[C@@H]1CN(C)Cc1ccncc1,-0.2
C[C@@H]1CN([C@H](C)CO)C(=O)c2cccc(NS(=O)(=O)c3cccs3)c2O[C@H]1CN(C)S(=O)(=O)c1ccc(Cl)cc1,-0.3
C[C@@H]1CN([C@@H](C)CO)C(=O)Cc2cc(NS(=O)(=O)c3cn(C)cn3)ccc2O[C@H]1CN(C)Cc1ccc2c(c1)OCO2,0.3
C[C@H](CO)N1C[C@H](C)[C@@H](CN(C)S(=O)(=O)c2ccc(Cl)cc2)Oc2ccc(NS(=O)(=O)c3cccs3)cc2C1=O,0.3
CNC[C@H]1Oc2c(NC(=O)Nc3cccc4ccccc34)cccc2C(=O)N([C@H](C)CO)C[C@@H]1C,1.5
CCO[C@@H]1OC(C(=O)NCc2ccccc2)=C[C@H](c2ccc(C(F)(F)F)cc2)[C@H]1CCCO,-0.1
C[C@@H]1CN([C@H](C)CO)C(=O)Cc2cc(NC(=O)Cn3cnnn3)ccc2O[C@H]1CN(C)C(=O)Nc1ccc(C(F)(F)F)cc1,-0.4
C[C@@H]1CCCCO[C@H](CN(C)C(=O)c2ccncc2)[C@@H](C)CN([C@H](C)CO)C(=O)c2cc(NC(=O)CCCCCC(=O)Nc3ccccc3N)ccc2O1,0.0
Cc1noc(C)c1S(=O)(=O)Nc1ccc2c(c1)C(=O)N([C@H](C)CO)C[C@H](C)[C@H](CN(C)C)OCCCC[C@H](C)O2,-0.4
O=C(NO)c1cccc(C(=O)N/N=C/c2ccc(-n3ccnc3)cc2)c1,0.6
C[C@H](CO)N1C[C@H](C)[C@H](CN(C)C)Oc2c(NC(=O)C3CCOCC3)cccc2C1=O,0.7
Cc1noc(C)c1NC(=O)Nc1ccc2c(c1)C(=O)N([C@H](C)CO)C[C@H](C)[C@@H](CN(C)Cc1ccc(C(=O)O)cc1)OCCCC[C@H](C)O2,-1.3
C[C@@H]1CN([C@H](C)CO)C(=O)c2cc(NC(=O)Nc3ccc(F)cc3)ccc2O[C@@H](C)CCCCO[C@@H]1CN(C)Cc1ccc(Cl)c(Cl)c1,0.2
C[C@@H]1CCCCO[C@@H](CN(C)Cc2ccc(C(=O)Nc3ccccc3N)cc2)[C@@H](C)CN([C@H](C)CO)C(=O)c2cc(NC(=O)NC3CCCCC3)ccc2O1,-0.9
C[C@@H]1CN([C@@H](C)CO)C(=O)Cc2cc(NC(=O)CCC(F)(F)F)ccc2O[C@H]1CN(C)Cc1ccncc1,-0.6
C[C@H]1CN([C@@H](C)CO)C(=O)c2cc(NS(C)(=O)=O)ccc2O[C@H]1CN(C)S(=O)(=O)c1ccccc1,0.0
C[C@@H]1CN([C@H](C)CO)C(=O)CCCn2cc(nn2)CO[C@H]1CN(C)Cc1cccc(C(=O)O)c1,0.0

# A draw from above in order of SMILES length, ascending.
SMILES,A1 apoptosis 2
C[C@H](CO)N1C[C@H](C)[C@H](CN(C)C(=O)NC2CCCCC2)Oc2ncc(C#CCN(C)C)cc2C1=O,-0.6
C[C@@H]1CN([C@@H](C)CO)C(=O)c2cc(NC(=O)C3CC3)ccc2O[C@@H]1CN(C)C(=O)Nc1ccc(F)cc1,0.0
C[C@@H]1CN([C@H](C)CO)C(=O)c2cc(NC(=O)Nc3ccc(F)cc3)ccc2O[C@@H](C)CCCCO[C@@H]1CN(C)Cc1ccc(Cl)c(Cl)c1,0.2

# More records:
SMILES,A1 apoptosis 2
C[C@@H]1CN([C@H](C)CO)C(=O)c2cccc(NC(=O)NC3CCCCC3)c2O[C@@H]1CN(C)C(=O)Nc1ccc2c(c1)OCO2,-0.7
CC(C)NC(=O)Nc1ccc2c(c1)CC(=O)N([C@H](C)CO)C[C@@H](C)[C@@H](CN(C)Cc1ccc3c(c1)OCO3)O2,-0.2
C[C@@H]1CN([C@@H](C)CO)C(=O)c2cc(NC(=O)CCC(F)(F)F)ccc2O[C@H]1CN(C)Cc1ccc(C(=O)O)cc1,0.6
COc1ccc(NC(=O)Nc2ccc3c(c2)C(=O)N([C@@H](C)CO)C[C@@H](C)[C@H](CN(C)C(=O)Nc2ccc(F)cc2)OCCCC[C@H](C)O3)cc1,-0.1
Cc1noc(C)c1S(=O)(=O)Nc1ccc2c(c1)CC(=O)N([C@@H](C)CO)C[C@H](C)[C@H](CN(C)Cc1ccc(C(=O)Nc3ccccc3N)cc1)O2,-0.5
O=C(N/N=C/c1ccc2c(c1)OCCO2)c1ccccc1O,-9.5
C[C@@H]1CN([C@H](C)CO)C(=O)c2cccc(NC(=O)Nc3ccc(C(F)(F)F)cc3)c2O[C@@H]1CN(C)S(=O)(=O)c1cccs1,-1.2
CCO[C@@H]1OC(C(N)=O)=C[C@H](C2CC2)[C@H]1CCCO,1.2
C[C@@H]1CN([C@H](C)CO)C(=O)c2cc(NS(C)(=O)=O)ccc2O[C@H]1CN(C)C,0.2
C[C@@H]1CN([C@H](C)CO)C(=O)c2cc(NC(=O)C3CCCCC3)ccc2O[C@@H]1CN(C)C(=O)Nc1ccc2c(c1)OCO2,1.4
C[C@@H]1CCCCO[C@@H](CN(C)S(=O)(=O)c2cn(C)cn2)[C@H](C)CN([C@@H](C)CO)C(=O)c2cc(NC(=O)Nc3ccc(F)cc3)ccc2O1,0.1
C[C@@H]1CN([C@H](C)CO)C(=O)c2cccc(NS(=O)(=O)c3cccs3)c2O[C@H]1CN(C)S(=O)(=O)c1cn(C)cn1,0.0
C[C@H](CO)N1C[C@H](C)[C@@H](CN(C)C)Oc2c(NC(=O)Nc3ccc4c(c3)OCO4)cccc2C1=O,0.0
COc1ccc(NC(=O)Nc2ccc3c(c2)C(=O)N([C@H](C)CO)C[C@H](C)[C@@H](CN(C)Cc2ccc(-c4ccccc4)cc2)O3)cc1,-0.5
COc1ccc(NC(=O)N(C)C[C@H]2Oc3ccc(NC(=O)NC(C)C)cc3CC(=O)N([C@@H](C)CO)C[C@@H]2C)cc1,0.9
C[C@@H]1CCCCO[C@H](CN(C)CC2CC2)[C@H](C)CN([C@H](C)CO)C(=O)c2cc(NS(=O)(=O)c3ccccc3)ccc2O1,-0.1
C[C@H]1CCCCO[C@@H](CN(C)C(=O)CCC(F)(F)F)[C@@H](C)CN([C@@H](C)CO)C(=O)c2cc(NS(C)(=O)=O)ccc2O1,0.3
C[C@H]1CN([C@@H](C)CO)C(=O)Cc2cc(NC(=O)Cc3cn(C)c4ccccc34)ccc2O[C@@H]1CN(C)Cc1ccncc1,-0.1
Cc1noc(C)c1S(=O)(=O)Nc1ccc2c(c1)C(=O)N([C@H](C)CO)C[C@@H](C)[C@@H](CN(C)C(=O)Nc1ccc(C(F)(F)F)cc1)O2,1.8
C[C@@H]1CN([C@H](C)CO)C(=O)c2cccc(NC(=O)c3nc4ccccc4s3)c2O[C@H]1CN(C)C(=O)Nc1cccc2ccccc12,-0.2
C[C@@H]1CN([C@H](C)CO)C(=O)c2cc(NS(=O)(=O)c3cn(C)cn3)ccc2O[C@@H]1CN(C)C(=O)Nc1ccc(C(F)(F)F)cc1,-0.1
C[C@H]1CN([C@@H](C)CO)C(=O)c2cc(NC(=O)c3ccncc3)ccc2O[C@H]1CN(C)S(=O)(=O)c1ccccc1,-0.2
C[C@@H]1CCCCO[C@@H](CN(C)C(=O)CCC(F)(F)F)[C@@H](C)CN([C@@H](C)CO)C(=O)c2cc(NC(=O)Nc3ccc4c(c3)OCO4)ccc2O1,0.2
C[C@@H]1CN([C@H](C)CO)C(=O)Cc2cc(NC(=O)CCCCCC(=O)Nc3ccccc3N)ccc2O[C@@H]1CN(C)C(=O)Nc1ccc2c(c1)OCO2,0.1
C[C@@H]1CN([C@H](C)CO)C(=O)Cc2cc(NC(=O)Cc3ccccc3)ccc2O[C@@H]1CN(C)Cc1ccc(C(=O)O)cc1,0.1

# Grouped by structure: those above containing a Cl atom.
SMILES,A1 apoptosis 2
C[C@@H]1CN([C@H](C)CO)C(=O)c2cccc(NS(=O)(=O)c3cccs3)c2O[C@H]1CN(C)S(=O)(=O)c1ccc(Cl)cc1,-0.3
C[C@H](CO)N1C[C@H](C)[C@@H](CN(C)S(=O)(=O)c2ccc(Cl)cc2)Oc2ccc(NS(=O)(=O)c3cccs3)cc2C1=O,0.3
C[C@@H]1CN([C@H](C)CO)C(=O)c2cc(NC(=O)Nc3ccc(F)cc3)ccc2O[C@@H](C)CCCCO[C@@H]1CN(C)Cc1ccc(Cl)c(Cl)c1,0.2

# (more compounds)
SMILES,A1 apoptosis 2
C[C@@H]1CN([C@H](C)CO)C(=O)c2cc(NS(=O)(=O)c3ccc(Cl)cc3)ccc2O[C@@H]1CN(C)Cc1ccc(C(=O)O)cc1,0.7
C[C@@H]1CN([C@H](C)CO)C(=O)c2cc(NS(C)(=O)=O)ccc2O[C@@H]1CN(C)Cc1ccncc1,-1.5
CNC[C@H]1Oc2ccc(NC(=O)NC(C)C)cc2CC(=O)N([C@@H](C)CO)C[C@@H]1C,1.6
C[C@@H]1CN([C@H](C)CO)C(=O)c2cc(NC(=O)Nc3ccc4c(c3)OCO4)ccc2O[C@@H]1CN(C)S(=O)(=O)c1ccc(F)cc1,0.5
C[C@H]1CN([C@@H](C)CO)C(=O)Cc2cc(NC(=O)CCC(F)(F)F)ccc2O[C@H]1CN(C)Cc1ccc(-c2ccccc2)cc1,1.9
C[C@@H]1CCCCO[C@H](CN(C)Cc2ccc(C(=O)O)cc2)[C@H](C)CN([C@H](C)CO)C(=O)c2cc(NS(=O)(=O)c3cn(C)cn3)ccc2O1,0.0
CNC[C@@H]1OCCCC[C@H](C)Oc2ccc(NC(=O)NC3CCCCC3)cc2C(=O)N([C@@H](C)CO)C[C@@H]1C,-0.1
C[C@H](CO)N1C[C@H](C)[C@H](CN(C)Cc2ccncc2)Oc2ccc(NC(=O)C3CCCCC3)cc2CC1=O,-0.2
C[C@@H]1CCCCO[C@@H](CN(C)C(=O)Nc2ccc(F)cc2)[C@@H](C)CN([C@H](C)CO)C(=O)c2cc(NC(=O)CCCCCC(=O)Nc3ccccc3N)ccc2O1,0.0
COc1ccc(NC(=O)Nc2ccc3c(c2)C(=O)N([C@@H](C)CO)C[C@H](C)[C@@H](CN(C)C(=O)Nc2cccc4ccccc24)OCCCC[C@@H](C)O3)cc1,0.3
CC(C)NC(=O)Nc1ccc2c(c1)C(=O)N([C@@H](C)CO)C[C@@H](C)[C@H](CN(C)C(=O)CCC(F)(F)F)OCCCC[C@@H](C)O2,0.6
C[C@H]1CN([C@@H](C)CO)C(=O)c2cc(NC(=O)Nc3ccc(C(F)(F)F)cc3)ccc2O[C@@H]1CN(C)Cc1ccccc1,-1.3
C[C@H]1CN([C@@H](C)CO)C(=O)Cc2cc(N(C)C)ccc2O[C@H]1CN(C)Cc1ccncc1,0.1
C[C@@H]1CN([C@H](C)CO)C(=O)c2cccc(NS(=O)(=O)c3cccs3)c2O[C@@H]1CN(C)C(=O)Nc1ccc2c(c1)OCO2,0.5
C[C@@H]1CCCCO[C@@H](CN(C)S(=O)(=O)c2ccc(Cl)cc2)[C@H](C)CN([C@@H](C)CO)C(=O)c2cc(NC(=O)C3CCCCC3)ccc2O1,0.8
C[C@@H]1CN([C@H](C)CO)C(=O)c2cc(NC(=O)NC3CCCCC3)ccc2O[C@H]1CN(C)S(=O)(=O)c1cn(C)cn1,0.1
C[C@@H]1CN([C@H](C)CO)C(=O)CCCn2nncc2CO[C@@H]1CN(C)S(=O)(=O)c1ccc(-n2cccn2)cc1,-0.4
C[C@H](CO)N1C[C@H](C)[C@H](CN(C)S(C)(=O)=O)OCCCC[C@H](C)Oc2ccc(NC(=O)NC3CCCCC3)cc2C1=O,-0.4
C[C@@H]1CN([C@H](C)CO)C(=O)Cc2cc(NC(=O)CCN3CCOCC3)ccc2O[C@H]1CN(C)Cc1ccc(C(=O)Nc2ccccc2N)cc1,-1.4
C#CCN(CC=C(C)C)[C@H](CO)c1ccccc1,0.1
COc1ccc(CN(C)C[C@@H]2Oc3ccc(NC(=O)Nc4ccccc4)cc3C(=O)N([C@@H](C)CO)C[C@@H]2C)cc1,0.2
CNC[C@H]1Oc2c(NS(=O)(=O)c3cccs3)cccc2C(=O)N([C@H](C)CO)C[C@@H]1C,0.6

# Some of the entries so far, bar-delimited.
structure | A1 apoptosis 2
C[C@@H]1CN([C@H](C)CO)C(=O)c2cc(NC(=O)NC3CCCCC3)ccc2O[C@H]1CN(C)S(=O)(=O)c1cn(C)cn1 | 0.1
C[C@@H]1CN([C@H](C)CO)C(=O)Cc2cc(NC(=O)CCN3CCOCC3)ccc2O[C@H]1CN(C)Cc1ccc(C(=O)Nc2ccccc2N)cc1 | -1.4
C[C@H](CO)N1C[C@H](C)[C@H](CN(C)S(C)(=O)=O)OCCCC[C@H](C)Oc2ccc(NC(=O)NC3CCCCC3)cc2C1=O | -0.4
